# AID923 = qHTS Assay for Allosteric/Competitive Inhibitors of Caspase-1: Spectroscopic Profiling in AFC Spectral Region. AID 923, 2007. 75,000 compounds, 1.1% hits. Potency, µM (doses to about 57.5 µM), inactives show at the highest dose fluorescence increase, actives largely listed as activators. compound fluorescence, AFC spectral region (405/520 nm); almost no hit is shown here; active = well fitted activation curve with a large enough effect; inconclusive = small, poorly fitted or top-dose-only effect;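 also: potency is read from the fitted curve at half-maximal effect; 0% is about no effect; scaled to a free AFC standard on each plate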
#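 Compound autofluorescence profiled at 405 nm ex/520 nm em during kinetic caspase 1 run (50 nM enzyme, 5 uM Ac-WEHD-AFC, HEPES pH 7.5, 10 mM DTT). Titration up to 57 uM; baseline from regression intercept, normalized to AFC standard curve.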
# Resorufin autofl = qHTS Assay for Spectroscopic Profiling in Resorufin Spectral Region. max dye-equivalent concentration, M. Compound fluorescence, resorufin region 547/598 nm, buffer; hits give high values. AID 588, 2007. 59,000 compounds, 0.04% hits; active = above 10 nM dye equivalent; inconclusive = 1 to 10 nM; inactive = 1 nM or less; a few of its hits are not listed in these tables; also: highest value over a series up to 38 µM
#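 Compounds in 100 mM Tris buffer, pH 8.0, incubated 15 min at room temperature, then read with 547 nm excitation and 598 nm emission filters. Fluorescence was converted to dye-equivalent concentration using an on-plate six-point resorufin standard curve.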
# A647 fluor = qHTS Assay for Spectroscopic Profiling in A647 Spectral Region; Compound fluorescence, A647 channel (570/671 nm), Tris buffer; max dye-equivalent concentration, M; 59,000 tested, under 10 active; active means above 1 µM dye equivalent; inconclusive means 0.1 to 1 µM; inactive means 0.1 µM or less;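 also: values scaled relative to a standard on each plate; highest value over a series up to 38 µM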
#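 Each compound's intrinsic fluorescence at 570 nm excitation and 671 nm emission is measured across its concentration series in 100 mM Tris, pH 8.0, after 15 min at room temperature, and reported relative to an A647 curve.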
# TSHR ag = qHTS Assay for Agonists of the Thyroid Stimulating Hormone Receptor; 73,000 compounds, 0.48% hits; Potency, µM (doses to about 57.1 µM), inactives show top-dose activation, usual class: activators; HEK293-CNG-TSHR cells (CNG channel as cAMP sensor), membrane potential dye, cAMP; AID 926, 2007; active = well fitted activation curve of enough size with the parental cells flat; inconclusive = any curve in the parental cells; inactive = parental cells flat and receptor cells flat or falling; also: potency is read from the fitted curve at half-maximal effect; % of control where 0% means no effect; weak receptor curves with flat parental cells got no call and are not listed
# Target sequence (P16473 whole entry, looked up): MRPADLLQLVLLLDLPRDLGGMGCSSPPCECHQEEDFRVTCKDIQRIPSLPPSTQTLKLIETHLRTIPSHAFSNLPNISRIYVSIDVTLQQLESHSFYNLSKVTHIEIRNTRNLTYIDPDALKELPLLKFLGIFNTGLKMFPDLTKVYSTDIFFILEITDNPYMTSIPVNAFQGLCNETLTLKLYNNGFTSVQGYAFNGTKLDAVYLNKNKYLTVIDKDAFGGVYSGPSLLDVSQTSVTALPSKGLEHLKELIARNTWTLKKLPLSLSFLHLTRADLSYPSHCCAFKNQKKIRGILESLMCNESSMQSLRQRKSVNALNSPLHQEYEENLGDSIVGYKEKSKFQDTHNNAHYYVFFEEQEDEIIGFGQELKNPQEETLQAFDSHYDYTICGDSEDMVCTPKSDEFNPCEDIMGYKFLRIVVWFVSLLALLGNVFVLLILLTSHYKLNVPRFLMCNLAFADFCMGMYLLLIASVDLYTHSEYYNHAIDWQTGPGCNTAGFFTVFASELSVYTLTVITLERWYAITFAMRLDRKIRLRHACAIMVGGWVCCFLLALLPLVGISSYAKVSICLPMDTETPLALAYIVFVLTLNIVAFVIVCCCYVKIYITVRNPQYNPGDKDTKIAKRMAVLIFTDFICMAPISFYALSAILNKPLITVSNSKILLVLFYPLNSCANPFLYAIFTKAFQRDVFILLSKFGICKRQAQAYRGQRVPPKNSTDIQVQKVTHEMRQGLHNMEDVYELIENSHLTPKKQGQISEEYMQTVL
#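 HEK 293 cells stably expressing TSHR and a cAMP-gated CNG channel; parental CNG-only cells as counterscreen. Cells preloaded 60 min with membrane potential dye plus 100 uM RO 20-1724, then compound 30 min; fluorescence read at 590 nm.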
# A488 autofl = qHTS Assay for Spectroscopic Profiling in A488 Spectral Region. AID 591, 2007. max dye equivalency, M. compound autofluorescence, A488 spectral region, dye equivalency; hits give high values. 59,000 compounds, 0.1% hits; active = above 10 nM dye equivalent; inconclusive = 1 to 10 nM; inactive = 1 nM or less; about half of its hits are not listed in these tables;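 also: highest value over a series up to 38 µM; compound alone in buffer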
#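 Intrinsic compound fluorescence is measured in 100 mM Tris buffer at pH 8.0 following 15 min incubation at room temperature. Intensities at 480 nm excitation/540 nm emission are calibrated to an on-plate A488 concentration series, giving dye-equivalent concentrations.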
# * = called active by the depositor; i = inactive; ? = inconclusive; . = no result given; [ ] = another dose, or the depositor's remark. An excerpt; the hit share may differ from the screen's.
SMILES,AID923,Resorufin autofl,A647 fluor,TSHR ag,A488 autofl
CCN1CCCC1CN(Cc1cc2cc(C)cc(C)c2[nH]c1=O)C(=O)Nc1ccccc1OC (centres undefined),3.3%,i,4.6e-08,11%,i
CN(C(=O)c1cccs1)c1ccccc1C(=O)O,-1.4%,.,.,4%[11.4 µM],.
CCCCNC(=O)CN(C1CCCCC1)S(C)(=O)=O,0.1%,i,3.6e-08,7%,i
O=C(COc1ccccc1Cl)Nn1cnnc1,3.5%,.,.,-1%,.
Cc1cc(NC(=O)c2cc(C3CC3)on2)n(-c2ccccc2)n1,-4.2%,.,.,9%,.
O=C(CSc1ccc2nnc(-c3cccnc3)n2n1)N1CCOCC1,-2.3%,.,.,-1%,.
CC1(C(=O)NCCN2CCOCC2)C=CC2(CCCCC2)N1C(=O)c1ccccc1 (centres undefined),1.2%,.,.,3%,.
COC(=O)c1cccc(NC(=O)C2COc3ccccc3O2)c1C (centres undefined),-0.4%,.,.,10%,.
COc1ccc(C2/C(=C(/O)c3ccc(C)cc3)C(=O)C(=O)N2C)cc1 (centres undefined),6.7%,.,.,4%,.
Nc1ccc2oc(-c3cccc4ccccc34)nc2c1,6.4%,i,3.2e-08,-8%,i

# Looked up by structure from the entries so far, two records:
SMILES,AID923,Resorufin autofl,A647 fluor,TSHR ag,A488 autofl
Cc1cc(NC(=O)c2cc(C3CC3)on2)n(-c2ccccc2)n1,-4.2%,.,.,9%,.
O=C(COc1ccccc1Cl)Nn1cnnc1,3.5%,.,.,-1%,.

# Three structures from above, arranged by SMILES length, smallest number first:
SMILES,AID923,Resorufin autofl,A647 fluor,TSHR ag,A488 autofl
O=C(COc1ccccc1Cl)Nn1cnnc1,3.5%,.,.,-1%,.
Cc1cc(NC(=O)c2cc(C3CC3)on2)n(-c2ccccc2)n1,-4.2%,.,.,9%,.
COc1ccc(C2/C(=C(/O)c3ccc(C)cc3)C(=O)C(=O)N2C)cc1 (centres undefined),6.7%,.,.,4%,.

# Other results.
SMILES,AID923,Resorufin autofl,A647 fluor,TSHR ag,A488 autofl
COc1cccc2[nH]c3c(N4CCN(Cc5ccc6c(c5)OCO6)CC4)ncnc3c12,3.4%,i,6.1e-09,-13%,i
O=C(NCc1nnc(SCC(=O)N2CCCC2)o1)c1ccccc1F,-1.1%,i,1e-09,8%[11.4 µM],i
O=C(NCCc1ccccc1)C1CCCN(S(=O)(=O)c2cccs2)C1 (centres undefined),1.6%,.,.,0%,.
O=C(Nc1ccc(N2C(=O)C3C4C=CC(C4)C3C2=O)cc1)Nc1nncs1 (centres undefined),-1.3%,.,.,-1%,.
CCCc1cc(C(=O)NCc2ccc(OC)cc2)no1,-3.8%,.,.,15%,.
Cn1c(=O)c2c(-c3ccc(C(C)(C)C)cc3)n(N3CCOCC3)cc2n(C)c1=O,-0.1%,i,1e-09,.,i
COCC(=O)N1CCC2(CC1)CN(C(=O)Nc1cccc(F)c1)C2,0.1%,i,1.2e-08,0%,i
Cc1cnc(CNc2ncnc3ccc(-c4ccc5c(c4)OCO5)cc23)cn1,-0.7%,i,1e-09,.,i
COc1cc(S(=O)(=O)N2CCOCC2)ccc1NC(=O)COC(=O)C12CC3CC(CC(C3)C1)C2,-3.5%,i,1.8e-09,28%,i
COc1ccc(C(=O)OCc2cc3cccc(C)c3[nH]c2=O)cc1,-1.1%,i,3.6e-08,12%,i

# Limited to TSHR ag, for 3 of the compounds above:
canonical_smiles	TSHR ag
O=C(NCCc1ccccc1)C1CCCN(S(=O)(=O)c2cccs2)C1 (centres undefined)	0%
O=C(Nc1ccc(N2C(=O)C3C4C=CC(C4)C3C2=O)cc1)Nc1nncs1 (centres undefined)	-1%
CCCc1cc(C(=O)NCc2ccc(OC)cc2)no1	15%

# The listing continues:
SMILES,AID923,Resorufin autofl,A647 fluor,TSHR ag,A488 autofl
COc1cc2c(cc1OC)CN(C(=O)COc1ccc(C)c(C)c1)CC2,0.0%,i,2.9e-09,26%,i
Clc1cccc(NCc2nnc(SCc3ccccc3)o2)c1,0.4%,i,2e-08,1%,i
CCCCOC(=O)c1ccc(OC(=O)c2cccnc2)cc1,-3.6%,i,3.6e-09,-2%,i
CCCCCn1c(CNC(=O)CC)nc2ccccc21,1.4%,.,.,18%,.
CC(=O)Oc1oc(-c2ccccc2)nc1/C=N/c1ccccn1,.,i,1e-09,.,i
O=C(NC1=NCCS1)c1csc2ccccc12,0.6%,.,.,-4%,.
N/C(=N\O)C1COc2ccccc2O1 (centres undefined),0.1%,i,1e-09,-2%,i
COCC(=O)N1CCC2(CCN(Cc3cc(C(F)(F)F)cc(C(F)(F)F)c3)CC2)CC1,2.4%,i,1.2e-08,1%,i
Cc1nc2sc(C(c3cccs3)N3CCN(Cc4ccccc4)CC3)c(O)n2n1 (centres undefined),5.8%,.,.,5%,.
O=C(CCN1CCCCCC1)Nc1ccc(F)cc1,-0.4%,i,1e-08,6%,i
O=C(c1nc(-c2ccccc2)n(-c2ccccc2)n1)N1CCCCCC1,0.2%,i,1e-09,.,i
COc1ccc(N2CCN(C(c3cccs3)c3nnnn3C3CCCC3)CC2)cc1 (centres undefined),-3.6%,i,1e-08,1%,i
CCc1nc(OCCN(C)C)c2oc3ccccc3c2n1,-1.2%,i,7.5e-09,0%,i
CCOc1ccc(-c2nnc3ccc(SCC(=O)N4CCN(c5ccccc5)CC4)nn23)cc1,-0.7%,i,1e-09,7%[11.4 µM],i
CCC(C(=O)c1ccc(O)cc1)c1ccccc1 (centres undefined),0.1%,i,8e-09,1%,i
Cc1nn2c(N3CCN(C(=O)c4ccco4)CC3)cc(C(C)(C)C)nc2c1-c1ccccc1,1.4%,i,1e-09,3%,i
CCOc1ccccc1N(CC(=O)NC(C)(C)C)C(=O)c1ccc(CN2CCOCC2)o1,0.6%,i,1e-09,?,i
C=CCNC(=O)Cn1nc(-c2ccccc2)ccc1=O,-1.4%,i,1e-09,.,i
CC(C)Cc1c(O)nc(SCCN2CCOCC2)[nH]c1=O,0.0%,i,2.3e-08,-17%,i
CC(C)Cc1nc2oc3c(NCc4cccnc4)ncnc3c2c2c1CCC2,-2.0%,i,3.2e-08,8%,i
Cc1noc(C)c1C(=O)N1CCC2(CC1)CN(c1ncccn1)C2,-1.0%,i,1e-09,-1%,i
O=C(CNS(=O)(=O)c1ccc(Br)s1)Nc1ccc2c(c1)OCCO2,-0.5%,i,1.2e-08,24%,i
O=C(O)C1CC(=O)N(CCc2c[nH]c3ccccc23)C1 (centres undefined),0.6%,i,2.3e-08,-2%,i
COCCOCCn1c(CCCO)nc2ccccc21,2.2%,i,1e-09,-11%,i
CC(=O)Nc1ccc(Cc2ccc3[nH]c(=O)cc(C)c3c2)cc1,-0.8%[11.5 µM],i,2.3e-08,5%[11.4 µM],i
CSc1sc(C(=O)O)c2c1C(=O)CCC2,.,i,1e-09,.,i
CCOC(=O)c1cc2sccc2n1CC(=O)N1CCN(C(=O)c2ccco2)CC1,0.7%,i,5.1e-09,0%,i
O=C(CN1C(=O)C2C3C=CC(C3)C2C1=O)NCCC1=CCCCC1 (centres undefined),-0.9%,i,2.8e-09,1%,i
COc1ccc(-c2csc(N(CCCN(C)C)C(=O)c3cccs3)n2)cc1,0.8%,i,1e-09,?,i
C/C(N)=C(/C#N)C(=O)CSc1n[nH]c(-c2ccccc2Br)n1,-0.5%,i,1e-08,-1%,i
N#CCSc1nnc(COc2cccc3ccccc23)n1-c1cccc(Cl)c1,-0.1%,i,1.7e-09,8%,i
O=C(NCc1ccc(Cl)c(Cl)c1)c1ccco1,0.5%,.,.,4%[11.4 µM],.
Nc1cc(-c2ccc(Br)cc2)nn1S(=O)(=O)c1ccccc1,-2.6%,.,.,7%,.
C=CCn1c(SCC(=O)Nc2c(C)cccc2C)nnc1-c1ccncc1,1.3%,i,2.8e-09,7%,i
CCOCc1nc(C)c(Cl)c(NS(=O)(=O)c2ccc(N)cc2)n1,1.7%,i,3e-08,0%,i
Cc1nn(C(=O)c2cc3sccc3[nH]2)c(C)c1C,-1.0%,i,2e-09,?,i
Cc1c(C2N3CC4(C)CN2CC(C)(C3)C4=O)c2ccccc2n1C (centres undefined),-0.1%,i,1.3e-08,7%,i
Cc1c(C(=O)OCC(C)C)[nH]c2c1C(=O)CC(c1ccco1)C2 (centres undefined),1.9%,.,.,?,.
CCOc1ccc(OCC)c(NC(=O)Cn2cccc2)c1,2.3%,i,3.1e-08,?,i
CCN(CC)CCOC(=O)C1(c2ccccc2)CCOCC1,0.2%,i,4.2e-08,6%,i
Cc1nnc(NC(=O)C(C)Sc2nncn2C)s1 (centres undefined),-2.3%,.,.,21%,.
Cn1c(SCc2nc(-c3ccc(Cl)cc3)no2)nnc1-c1ccco1,0.6%,.,.,36%,.
CCCN(CCO)Cc1cccc(Br)c1,2.0%,i,1e-09,.,i
CCOC(=O)N1CCC(NC(=O)C2CCC(CNS(=O)(=O)c3ccc(OC)cc3)CC2)CC1 (centres undefined),-0.8%,i,1e-08,-1%,i
Fc1ccccc1OCCCCn1cncn1,-0.2%,i,2.3e-08,3%,i
O=C(Nc1ccc2snnc2c1)N1CCOCC1,0.2%,i,2.1e-09,-3%,i
CS(=O)(=O)NCc1csc(-c2ccccc2)n1,1.0%,i,1.8e-09,11%[11.4 µM],i
CCC(Oc1ccccc1)C(=O)Nc1ccc(-c2nnc(-c3ccco3)o2)cc1 (centres undefined),0.9%,i,3.1e-08,27%,i
CC(C)(CO)N1CCN(C(=S)Nc2ccccc2)CC1,0.2%[11.5 µM],i,1e-09,-1%[11.4 µM],i
CCOC(=O)COn1c(=O)c(=O)n(OC)c2ccccc21,-0.7%,i,1e-09,-1%,i
# (cont.)
SMILES,AID923,Resorufin autofl,A647 fluor,TSHR ag,A488 autofl
CCOc1ccc(OCC)c(NC(=O)CSc2nnc(Cn3cnc4ccccc43)n2C)c1,-0.6%,i,3.1e-08,0%,i
O=C(C1CCC(Cn2c(=S)[nH]c3ccccc3c2=O)CC1)N1CCOCC1 (centres undefined),0.1%,i,1e-09,?,i
N#Cc1nc(COc2ccc(Cl)cc2)oc1N1CCCCCC1,-0.1%,i,1.7e-08,?,i
CNc1ncnc2c1ncn2[C@@H]1O[C@H](CO)[C@@H](O)[C@@H]1O,-0.8%[25.7 µM],i,1.2e-08,?,i
Cc1cc(C(=O)N2CCN(C(c3ccccc3)c3ccccc3)CC2)on1,-0.5%,.,.,3%,.
COCCNC(=O)c1cnn2c(C(F)(F)F)cc(-c3ccc4c(c3)OCO4)nc12,-1.3%,i,2.4e-08,1%,i
Cc1cc(C(=O)CSc2nnc(-c3ccco3)o2)c(C)n1Cc1ccco1,7.4%,i,2.8e-08,?,i
Cc1occc1C(=O)Nc1nccs1,1.5%,i,3.1e-09,6%,i
O=C(Nc1nnc(-c2ccncc2)s1)C1CCCO1 (centres undefined),5.3%,i,1e-09,3%,i
CCc1nc(C)ccc1OCC(=O)NCCCN(C)C,-0.1%,i,1e-09,5%,i
Cc1cnn(C(=S)NCc2ccco2)c1,4.4%,i,2.1e-08,-11%,i
c1coc(-c2nc3nc4ccccc4nc3n2-c2ccc3c(c2)OCCO3)c1,.,i,3.6e-08,.,i
C1CCC2(CC1)OCC1(CO2)COC2(CCCCC2)OC1,0.0%,i,5.9e-09,19%,i
CCOC(=O)CSc1nnc(Cc2cc(=O)[nH]c(=O)[nH]2)n1-c1ccc(Cl)cc1,1.2%,.,.,-3%,.
CN(C)C=Nc1ncc2c3ccccc3n(CCN(C)C)c2c1C#N,1.3%,i,1.8e-08,-6%,i
Cc1ccc(-n2nnc3c(SCC(=O)NCC4CCCO4)ncnc32)cc1 (centres undefined),1.5%,.,.,6%,.

# Bioassay records (PubChem)
